High-throughput results: PubChem, PCMD
Calb biofilm kill: mixtures killing C. albicans biofilm | C. albicans biofilm persisters + clotrimazole, fluorescence viability; primary screen in compound mixtures of four per well | inhibition, % at 7.6 µM | 120,000 compounds, 0.02% hits | AID 1242;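 active = inhibition above 30.3% in the primary screen of four-compound pools, then above 30% when the compound was retested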;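 also: compounds exposed to preformed 24 h biofilms for 48 h; the number belongs to the whole pool; some results filed as inactive read as strong as hits; inactives centre near 12; 0% = biofilm with clotrimazole alone and 100% = kill control; retested singly at about 60 µM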
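Incubation: 24 h biofilm formation, then 48 h compound exposure, 37 °C | Material: C. albicans biofilms | Buffer or medium: RPMI/MOPS medium, pH 7.0 | Measured by: 2-h Alamar Blue fluorescence, 535/590 nm excitation/emission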
An asterisk follows results filed as active. This is a subset; rates above refer to the full screens.

SMILES	Calb biofilm kill
COC(=O)c1ccc(S(=O)(=O)NCCc2ccccc2OC)n1C	16
C[n+]1cn(/N=C/c2ccccc2)c2ccccc21	10
CC(C)CCN(C(=O)CNC(=O)c1cccs1)C(C(=O)NC1CCCC1)c1ccncc1 (configuration not stated)	12
Cc1ccc(C)c(NC(=O)CSc2ccc(-c3ccco3)nn2)c1	12
CCCc1ccc(O)c(N=Cc2cc(Br)cc(OCC)c2O)c1	11
O=C(N/N=C/c1ccccc1[N+](=O)[O-])c1ccc(CN2CCOCC2)cc1	18
CCOC(=O)c1c(-c2ccc(C)cc2)csc1NC(=O)c1cccc(N2C(=O)CCC2=O)c1	10
CCc1ccc(NC(=O)c2cc3c(C)nc4ccccc4c3o2)cc1	11
O=C(Nc1ccc(-c2nc3ccccc3s2)c(O)c1)C1=COCCO1	18
OC1(c2cccc(C(F)(F)F)c2)CCN(Cc2nc(-c3cnccn3)no2)CC1	26
Cc1cc(-c2nn(-c3ccccc3F)cc2CN2CCN(c3ccccn3)CC2)c(C)s1	10
O=c1[nH]c2ccccc2c(O)c1-c1cc2ccccc2oc1=O	9
COc1ccc2nc(SCC(=O)NCc3ccc4c(c3)OCO4)[nH]c2c1	5
CCOc1ccccc1NC(=S)NCCc1ccc(F)cc1	-5
O=c1[nH]cnc(O)c1C(c1ccc(Br)cc1)c1c(O)nc[nH]c1=O	16
COc1cc(S(=O)(=O)N2CCCC2)c(C)cc1C	14
O=C(O)CCC(NC(=S)Nc1ccccc1)C(=O)O (configuration not stated)	29
CC(C)c1ccccc1NC(=O)COC(=O)Cc1cccc(C(F)(F)F)c1	15
O=C(CCC(=O)OCc1ccc(Br)cc1)Nc1ccccc1	3
COC(=O)c1c(NC(=O)C2SC(=NC3CCCCC3)C(C(N)=O)=C2N)sc2c1CCCC2 (configuration not stated)	17
CC(C)(C)c1ccc(C(=O)Cn2nc(C(=O)O)c3ccccc3c2=O)cc1	19
NC(=O)C(=O)N/N=C/c1cccc(C(F)(F)F)c1	9
CCNc1nc(NC(C)CC)nc(ON=C(C)C)n1 (configuration not stated)	15
COc1cc(NC(=O)C(=O)NCCN2CCNCC2)c(OC)cc1Cl	23
Cc1nc2ccc(Cl)cn2c1C(=O)NN	-8
COCCCNc1nc2nonc2nc1N1CCC(C(C)N2CCOCC2)CC1 (configuration not stated)	11
Cc1ccc(N(CC(=O)N/N=C/c2cccc(Br)c2)S(C)(=O)=O)cc1	19
Cn1c(=O)c2c(nc(CN3CCN(CCO)CC3)n2CCc2ccccc2)n(C)c1=O	19
COc1ccc(CC(=O)NNC(=O)CCc2ccccc2)cc1OC	7
Cn1nnnc1NCc1ccc(Cl)cc1	18
O=C(Nc1ccc2c(c1)OCO2)c1ccc(N2C(=O)c3ccccc3C2=O)cc1	-11
O=C(NCc1ccncc1)C(=O)NCC1OCCCN1S(=O)(=O)c1ccccc1 (configuration not stated)	13
CC(=O)c1cccc(NC(=S)NC(=O)c2cccc(C)c2)c1	11
CCCC(=O)N1CCN(c2ccc(NC(=O)c3cccs3)cc2Cl)CC1	17
COc1ccc(CCN(C)CCCC(C#N)(c2cc(OC)c(OC)c(OC)c2)C(C)C)cc1OC (configuration not stated)	15
S=C(Nc1ccc2[nH]ccc2c1)NC1CCCCC1	-2
N#C/C(=C\c1ccc(-c2nc3ccccc3s2)o1)C(N)=O	7
O=C(NCc1ccccn1)C12CC3CC(CC(C3)C1)C2	11
S=c1[nH]ccn1Cc1ccccc1	9
O=C1OC(C(=O)Nc2ccccc2)Cc2ccccc21 (configuration not stated)	12
CCOC(=O)c1c(NC(=O)CSc2nnc(-c3c[nH]c4ccccc34)n2C)sc2c1CCCC2	15
CN=c1scc(-c2ccc(Cl)cc2)n1C	17
NC(=O)c1ccccc1NC(=O)Nc1cccc(Cl)c1Cl	11
N#CCCn1cc(C(=O)N2CCCCC2)c(-c2ccc([N+](=O)[O-])cc2)n1	22
CCOc1ccc(C(=O)NC(C)C2COc3ccccc3O2)cc1 (configuration not stated)	5
COc1ccc(N2CCN(C(=O)CSc3nnc(NC(=O)C4CCC4)s3)CC2)cc1	32
O=C(c1ccco1)N1CCN(C(c2ccccc2)c2nnnn2C2CCCC2)CC1 (configuration not stated)	-3
CC(c1ccccc1)N1CCN(C(=O)CCl)CC1 (configuration not stated)	19
CC(=O)Nc1cccc2c1C(=O)N(c1ccc(OC(C)=O)cc1)C2=O	18
O=C(O)c1cccc(N2C(=O)c3ccc(C(=O)c4cccc([N+](=O)[O-])c4)cc3C2=O)c1	15
CCOC(=O)CC(=O)CSc1ncnc2c1nnn2-c1ccc(OC)cc1	14
COc1cc2nc(CN(C)Cc3ccc(Cl)cc3)[nH]c(=O)c2cc1OC	0
CCOc1cccc(OCCOCCN(C)C)c1	16
O=C(Cc1n[nH]c(=O)c2ccccc12)N1CCN(c2ccc(F)cc2)CC1	9
COc1cccc(NC(=O)CCNS(=O)(=O)c2cccc3nsnc23)c1	-4
CCCn1nc(C(=O)OCC(=O)Nc2cccc(S(N)(=O)=O)c2)c2ccccc2c1=O	3
O=C(Cn1nc2n(c1=O)-c1ccccc1SC2)N/N=C/c1ccncc1	12
Cc1ccc2nc3c(cc2c1)c(NC(=O)c1ccco1)nn3CC(C)C	18
O=S(=O)(c1cccc(F)c1)N1CCCN(c2ccc(C(F)(F)F)cn2)CC1	3
COc1ccc(NC(=O)C2CCCN2C(=O)OC(C)(C)C)cc1 (configuration not stated)	-4

Continued; it opens with the 6 that closed the last part.
SMILES	Calb biofilm kill
COc1cccc(NC(=O)CCNS(=O)(=O)c2cccc3nsnc23)c1	-4
CCCn1nc(C(=O)OCC(=O)Nc2cccc(S(N)(=O)=O)c2)c2ccccc2c1=O	3
O=C(Cn1nc2n(c1=O)-c1ccccc1SC2)N/N=C/c1ccncc1	12
Cc1ccc2nc3c(cc2c1)c(NC(=O)c1ccco1)nn3CC(C)C	18
O=S(=O)(c1cccc(F)c1)N1CCCN(c2ccc(C(F)(F)F)cn2)CC1	3
COc1ccc(NC(=O)C2CCCN2C(=O)OC(C)(C)C)cc1 (configuration not stated)	-4
CC(=O)N(C(C)=O)c1nc2nc(C)cc(C)n2n1	15
O=C(NCc1ccccc1C(F)(F)F)C1CC(c2cccc(F)c2)=NO1 (configuration not stated)	24
CCc1c(-c2ccccc2)nc2sc3c(c2c1N)CCCC3	21
O=C(c1ccccc1Br)N1CCn2c1nc1ccccc12	1
O=C(CSc1nc2ccccc2c(=O)n1Cc1ccco1)NCCN1C(=O)CSC1=O	5
O=C(COC(=O)c1ccc2c(c1)OCCO2)Nc1cccc(S(=O)(=O)N2CCOCC2)c1	5
COc1ccccc1N1CCN(CC(O)COCc2cccs2)CC1 (configuration not stated)	23
NS(=O)(=O)c1ccc(CNC(=O)c2cc(-c3ccccc3)nc3ccccc23)cc1	15
COc1ccc(NC(=O)C(NC(=O)c2ccc(=O)[nH]c2)c2ccc(OC)cc2)cc1 (configuration not stated)	-8
COc1ccc(CN2C(=O)N(c3ccccc3)C(=O)C2CC(=O)Nc2ccccc2)cc1OC (configuration not stated)	37
C[C@H](NC(=O)c1nc[nH]c1C(=O)NC(c1ccccc1)c1ccccc1)C(=O)OC(C)(C)C	12
N#C/C(=C\C=C\c1ccccc1)C(=O)Nc1ccccc1	20
Cc1ccc(NC(=O)c2cccc(C(=O)OC(C)C)n2)c(Br)c1	5
CN(Cc1nc(-c2cnccn2)no1)CC1(c2ccccc2)CC1(C)C (configuration not stated)	0
COCCN(C(=O)CNC(=O)c1ccco1)C(C(=O)NC1CCCCC1)c1cccs1 (configuration not stated)	6
CCOC(=O)CSc1nnc(-c2cccnc2)o1	7
COc1ccccc1C(=O)NCC(=O)OCC(=O)Nc1cccc(S(=O)(=O)N(C)C)c1	18
COc1ccccc1OCC(=O)O	15
O=C(O)c1cccc(-n2cccc2/C=C2/NC(=O)N(c3ccc(Cl)cc3)C2=O)c1	13
O=C(COC(=O)c1cc(=O)[nH]c2ccccc12)Nc1nccs1	17
CC1CCN(CCCn2c(=S)[nH]c3c(sc4ccccc43)c2=O)CC1	12
CS(=O)(=O)c1ccc2nc(NC(=O)C3CCCO3)sc2c1 (configuration not stated)	8
Cc1ccc(C(C)C)c(OCc2n[nH]c(=S)o2)c1	7
NC(=O)c1ccc(NC(=O)COC(=O)CCSc2ccccc2)cc1	4
COC(=O)c1ccc(N/C(=N/S(=O)(=O)c2ccccc2)c2ccccc2)cc1	12
O=C(CSc1nnc(-c2n[nH]c3ccccc23)n1-c1ccccc1)Nc1cccc(Cl)c1	9
COC(=O)c1ccc(COC(=O)CNS(=O)(=O)c2ccccc2)cc1	30
O=C(NCc1ccc2c(c1)OCO2)c1ccccc1	15
Cc1cc(C)nc(SCc2ccc(C(=O)N/N=C/c3ccco3)cc2)n1	7
Cc1cc(C(=O)O)ccc1-c1ccc(/C=C2\NC(=O)N(Cc3ccc(F)cc3)C2=O)o1	22
Cc1ccc(S(=O)(=O)N/N=c2\oc3ccccc3cc2C(=O)Nc2cccc(C)c2)cc1	12
Fc1ccc(-c2n[nH]c(=S)n2-c2ccc3c(c2)OCCO3)cc1	2
CCOP(=O)(c1ccccc1)C(O)c1ccc(F)cc1 (configuration not stated)	14
O=C1C2C3C=CC(C3)C2C(=O)N1Nc1c(Cl)cc(Cl)cc1Cl (configuration not stated)	22
C=C(C)c1cccc(C(C)(C)NC(=O)NC(c2ccccc2)c2ccc(OC)cc2)c1 (configuration not stated)	20
CCOC(=O)c1nc(Nc2ccc(C(C)=O)cc2)c2ccccc2n1	13
Cc1ccc(-c2ccc(/C=C/C(=O)c3ccccc3)o2)cc1	5
C/C=C/C(=O)Nc1cccc(C2=NOC3(C2)C[C@@H](C(N)=O)N(C(=O)c2cc([N+](=O)[O-])cc([N+](=O)[O-])c2)C3)c1 (some centres not stated)	20
O=C(CSc1nnc(-c2ccccc2)n1-c1ccccc1)c1ccc[nH]1	20
O=C(COc1ccc(Cl)cc1Cl)NC(=S)Nc1ccccc1C(=O)O	23
O=C(/C=C/c1cccc([N+](=O)[O-])c1)N1CCN(S(=O)(=O)c2cccs2)CC1	-6
O=C(CCc1nnc(C2CCCCC2)o1)N1CCN(C2CCCCC2)CC1	9
COC(=O)C1=CN(Cc2cccs2)C=C(C(=O)OC)C1c1cccc(Cl)c1	-10
CCCC(=O)Nc1ccc(C=C(C(C)=O)C(C)=O)cc1	20
O=C(Nc1cccc(Cl)c1)N1CCC(CO)(CCOc2ccccc2)CC1	16
Cc1cnc(NC(=O)Cc2cccs2)s1	10
COc1ccc(OCC(=O)O/N=C(\N)Cc2cccs2)cc1	3
Oc1ccc(-c2csc(Nc3ncccn3)n2)cc1O	6
COc1ccc(N2CCN(C(C)=C3C(=O)c4ccccc4C3=O)CC2)cc1	9
CCCCNC(=S)NNC(=O)c1ccc(Br)o1	8
O=C(CSc1nnc2c(n1)[nH]c1ccccc12)OCc1ccccc1	8
CC(C)CC(=O)Nc1ccnc(-c2ccncc2)n1	17
O=C(Nc1ccc(F)cc1)C(c1ccccc1)N1CCN(S(=O)(=O)c2c(F)cccc2F)CC1 (configuration not stated)	9
Cc1ccc(-n2c(SCC(N)=O)nc3c(c2=O)C2(CCCC2)Cc2ccccc2-3)cc1	25
CC(Oc1ccccc1)c1nnc(N)s1 (configuration not stated)	17
O=C1NC(=O)/C(=C\c2ccccc2OCc2ccccc2)S1	6
Cc1cccc(N=C/C(C(=O)C(F)(F)F)=C(\O)c2ccco2)c1	14
Cc1ccc(C)c(NC(=S)NC2CC3CCCC(C2)N3CC(C)C)c1 (configuration not stated)	20
Fc1ccc(Oc2nc(-c3ccccn3)nc3ccccc23)cc1	30
c1ccc(CSc2nnc(-c3ccco3)o2)cc1	24

New compounds follow.
SMILES	Calb biofilm kill
COc1ccc(CN2C(=O)c3ccccc3C2C(=O)NCCc2ccccc2)c(OC)c1 (configuration not stated)	23
Cc1ccc(NC(=O)C(OC(=O)c2cc(C)oc2C)c2ccccc2)cc1 (configuration not stated)	21
Cc1ccccc1NC(=O)N1CCC(C(=O)c2ccc(F)cc2)CC1	-7
C/C(=N/NC(=O)CNC(=O)Cc1ccc(Cl)cc1)c1ccco1	15
CC(C(=O)O)n1ncc2ccccc2c1=O (configuration not stated)	25
CCn1ncc([C@@H]2C[C@H]3CN(Cc4cccc(Cl)c4)C(=O)[C@]34CCCN24)c1C	-9
Cc1ccc(NC(=O)C2CC(=O)Nc3nc4ccccc4n32)c(C)c1 (configuration not stated)	19
Cc1ccccc1NC(=O)C(=O)NCCc1c[nH]c2ccccc12	4
CCOC(=O)c1c(C)oc2c1c(CN1CCN(C(=O)OCC)CC1)c(O)c1ccccc12	19
Cc1cc(C)nc(/N=C(\N)Nc2cccc(OCc3ccccc3)c2)n1	22
O=C(N/N=C/c1cn[nH]c1-c1ccc(Cl)cc1)c1ccc([N+](=O)[O-])cc1	36
FC(F)(F)c1cccnc1Oc1ccc(C2=NCCS2)cc1	19
Cc1nn(-c2ccccc2)c2nc3c(cc12)C(=O)CCC3	14
CC(C)N(C(=S)Nc1cccc(S(=O)(=O)N(C)C)c1)c1ccccc1	21
COc1ccc(C2C(C#N)=C(N)N(c3ncn[nH]3)C3=C2C(=O)CCC3)cc1 (configuration not stated)	7

Seven compounds out of the list, arranged by molar mass, highest first.
SMILES	Calb biofilm kill
Cc1ccc(N(CC(=O)N/N=C/c2cccc(Br)c2)S(C)(=O)=O)cc1	19
COC(=O)C1=CN(Cc2cccs2)C=C(C(=O)OC)C1c1cccc(Cl)c1	-10
CN(Cc1nc(-c2cnccn2)no1)CC1(c2ccccc2)CC1(C)C (configuration not stated)	0
Cc1ccccc1NC(=O)N1CCC(C(=O)c2ccc(F)cc2)CC1	-7
O=C(COC(=O)c1cc(=O)[nH]c2ccccc12)Nc1nccs1	17
Cc1ccc(-c2ccc(/C=C/C(=O)c3ccccc3)o2)cc1	5
O=C(NCc1ccccn1)C12CC3CC(CC(C3)C1)C2	11
